Lassa entry inh = inhibitors of Lassa virus binding or cell entry. 300,000 compounds, 1.2% hits. Lassa virus pseudotype entry inhibition, cell reporter; control for the full effect not named in the record. AID 540256. Potency, µM (top dose mostly 37.9 µM), for inactives: at the top dose activity change, negative = inhibition, actives largely listed as inhibitors; active means well fitted inhibition curve with a large enough effect; inconclusive means small, poorly fitted or top-dose-only effect, or effect the other way; inactive means flat fitted curve, though single readings scatter; tested in HEK293 cells; note: % is set by controls: 0 for no effect and ±100 for the full control effect; nearly all actives have a fitted effect of over 50% in size; luciferase read-out
RE007 growth inh = less growth of the S. pombe RE007 Vpr strain. AID 651644. S. pombe RE007 Vpr strain, BacTiter-Glo ATP luminescence, 24 h; control for the full effect not named in the record. Potency, µM (doses to about 92.2 µM), for the others: at the top dose activity change, negative = less growth. 360,000 compounds, 0.21% hits; active = well fitted falling curve with a large enough effect; inconclusive = small, poorly fitted or top-dose-only effect; inactive = no such curve, though single readings can be large or run the other way;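 note: % is set by controls: 0 for no effect and ±100 for the full control effect; nearly all actives have a fitted effect of over 50% in size; the assay follows cell death caused by Vpr and the record does not say whether a fall means rescue or toxicity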
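Fission yeast RE007 carrying one integrated HIV-1 vpr copy, seeded at OD 0.01 in PMG+AL medium with 23 nL pinned compound. Grown 24 h at 30 degrees; viability read by BacTiter-Glo luminescence after 5 min.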
Cruzain inh noDet = blocks cruzain activity in detergent-free assay. P25779. purified cruzain, Z-FR-AMC fluorescence, no detergent. Potency, µM, inactives show max response, negative = inhibition, most hits filed as inhibitors. 200,000 compounds, 2.3% hits. AID 1476; active = well fitted curve in the direction sought with a large enough effect; inconclusive = small, poorly fitted or top-dose-only effect, or another doubt; inactive = no such curve, though single readings can be large; an effect the other way counts as inactive or inconclusive;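 note: plate controls were enzyme without inhibitor for no effect and buffer without enzyme for full effect; nearly all actives have a fitted effect of over 40% in size; top concentration of the series not given in the record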
Target sequence (P25779 123-467 limits assumed): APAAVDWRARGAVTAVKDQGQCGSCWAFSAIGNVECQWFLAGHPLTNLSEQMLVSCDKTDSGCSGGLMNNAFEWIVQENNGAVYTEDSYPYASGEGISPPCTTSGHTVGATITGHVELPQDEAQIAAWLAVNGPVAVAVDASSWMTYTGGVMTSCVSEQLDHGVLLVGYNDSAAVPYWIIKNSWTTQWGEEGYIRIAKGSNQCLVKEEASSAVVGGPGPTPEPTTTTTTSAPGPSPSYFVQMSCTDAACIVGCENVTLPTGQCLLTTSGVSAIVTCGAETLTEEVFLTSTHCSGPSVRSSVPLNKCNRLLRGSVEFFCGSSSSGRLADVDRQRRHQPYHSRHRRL
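Detergent-free condition (0.00005% Triton X-100) in acetate buffer pH 5.5 with DTT. 1.5 nM enzyme and compound were pre-mixed 15 min, then 2 uM Z-FR-AMC substrate added; reaction progress from fluorescence change between first and third reads (60 s).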
Cruzain Triton = cruzain (T. cruzi) inhibition with detergent; 200,000 compounds, 0.43% hits; Potency, µM, for the others: max response, negative = inhibition, most hits filed as inhibitors; P25779; purified cruzain, Z-FR-AMC fluorescence, 0.01% Triton; active = well fitted curve in the direction sought with a large enough effect; inconclusive = small, poorly fitted or top-dose-only effect, or another doubt; inactive = no such curve, though single readings can be large; an effect the other way counts as inactive or inconclusive;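 note: plate controls were neutral wells for no effect and buffer without enzyme for full effect; nearly all actives have a fitted effect of over 40% in size; top concentration of the series not given in the record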
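Detergent-containing arm of a paired screen for aggregation-based inhibition: 0.01% Triton X-100 present. Cruzain at 1.5 nM cleaved 2 uM Z-FR-AMC at pH 5.5 with 5 mM DTT; AMC fluorescence gain over 60 s measured activity.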
MARV entry inh = Marburg virus entry inhibition. Potency, µM (doses to about 37.8 µM), without a hit: at the top dose activity change, negative = inhibition, most hits filed as inhibitors. 300,000 compounds, 1.8% hits. Marburg virus pseudotyped entry inhibition, cell reporter; control for the full effect not named in the record; about a third of the inactives were read at about 46 µM; active = well fitted inhibition curve with a large enough effect; inconclusive = small, poorly fitted or top-dose-only effect, or effect the other way; inactive = flat fitted curve, though single readings scatter; tested in HEK293 cells; about a fifth of its hits are not listed in these tables; note: % is set by controls: 0 for no effect and ±100 for the full control effect; luciferase read-out
StopGo reporter = FMDV 2A StopGo reporter, luciferase signal | AID 1159524 | human cells with a luciferase reporter of 2A StopGo recoding; control for the full effect not named in the record | Potency, µM (highest dose often 57.9 µM), for inactives: at the top dose signal change, negative = less light | 410,000 compounds, 1.2% hits; active = well fitted falling curve with a large enough effect; inconclusive = small, poorly fitted or top-dose-only effect; inactive = no such curve, though single readings can be large or run the other way; tested in HEK293T cells; note: % is set by controls: 0 for no effect and ±100 for the full control effect; nearly all actives have a fitted effect of over 45% in size; luciferase light after 4 h
NS1 function inh = influenza NS1 inhibition; Potency, µM (titrated, usually from 46.1 µM), for inactives: at the highest dose activity, positive = more growth; 270,000 compounds, 0.4% hits; S. cerevisiae slowed by influenza A NS1, growth recovery by OD600; note: actives are rising curves; nearly all actives have a fitted effect of over 50% in size
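Compounds were scored for reversing the slow growth caused by influenza A NS1 in S. cerevisiae, measured by optical density at 600 nm. Assay medium contained 2% galactose at pH 6.0; NS1-free yeast of the same strain were the positive control.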
SARS PLP yeast = blocks SARS-CoV papain-like protease in a yeast assay | S. cerevisiae expressing SARS-CoV PLpro, growth rescue; control for the full effect not named in the record | Potency, µM (highest dose often 32.9 µM), for the others: top-dose activity, positive = growth rescue | 330,000 compounds, 0.19% hits | AID 485353; note: 0% is about no effect; nearly all actives have a fitted effect of over 55% in size; growth read by luminescence after 48 h
An asterisk follows results filed as active; ? = inconclusive; · = no result given; [ ] = another dose, or the depositor's remark. Unless noted, calls come from the whole dose curve; as a rule, active means well fitted rising curve with a large enough effect; inconclusive means small, poorly fitted or top-dose-only effect; inactive means no such curve, though single readings can be large or run the other way. Potency is the fitted concentration of half-maximal effect.

Each structure is followed by: StopGo reporter	Cruzain Triton	RE007 growth inh	MARV entry inh	Cruzain inh noDet	SARS PLP yeast	Lassa entry inh	NS1 function inh
CCCOc1cccc(C2C(C(=O)c3cc4ccccc4o3)=C(O)C(=O)N2c2cc(C)on2)c1 (stereo not given)
→ -9%	·	3%	·	·	?	·	6%
O=C(O)c1cc(NS(=O)(=O)c2ccc(NC3CCCCC3)c([N+](=O)[O-])c2)cc(C(=O)O)c1
→ 3%	·	-2%	0%[46.1 µM]	·	1%	20%[46.1 µM]	6%
Cc1cc(S(=O)(=O)N2CCN(c3ccccc3C)CC2)ccc1F
→ 0%	-2.8%	16%	?	-1%	-20%	-30%	-32%
CC(=O)c1cccc(CN2CCCC(CCC(=O)NCc3ccc(F)c(F)c3)C2)c1 (stereo not given)
→ -3%	·	6%	·	·	-2%	·	0%
Cc1ccc(S(=O)(=O)N2CCOCC2)cc1C(=O)Nc1ccc(-c2cn3ccsc3n2)cc1
→ ?	-5.6%	4%	?	-26%	0%	?	?
COc1ccc(CNC(=O)C2CCC(CNC(=O)[C@@H]3Cc4ccccc4CN3)CC2)cc1 (stereo not given in full)
→ -28%	·	-4%	·	·	10%	·	-11%
CCNC(=S)/N=C(\N)Nc1nc(C)c2cc(C)ccc2n1
→ 61%[activator]	·	0%	?	·	-2%	·	0%
O=C(Oc1ccc(F)cc1C(=O)/C=C/c1cccs1)c1cccc([N+](=O)[O-])c1
→ -7%	-7.4%	-11%	-2%	0%	-37%	?	-9%
O=C(NCc1ccccc1)c1ccc(Cn2c(=O)c3cccn3c3cccnc32)cc1
→ -20%	-0.7%	·	·	29%	·	?	·
CCCN(CCC)CC(O)Cn1c2ccccc2c2ccccc21 (stereo not given)
→ -5%	·	-15%	7.1µM*	·	1%	-9%[46.1 µM]	-2%
CC1CCN(S(=O)(=O)c2ccc3c(c2)oc(=O)n3CC(=O)NCc2ccc3c(c2)OCO3)CC1
→ ?	-7.3%	24%	·	21%	-4%	·	-93%
CCOC(=O)N1CCN(C(=O)c2ccc3c(=O)n4c(nc3c2)CCCCC4)CC1
→ 7%	4.8%	-7%	20%	11%	13%	3%	-3%
CCc1ccccc1NC(=O)CNC(=O)c1cn(Cc2ccccc2)nc1-c1cccnc1
→ 8%	·	4%	?	·	-10%	10%	·
COc1ccc(-c2nc(C)c(C(C)=O)n2O)cc1
→ 19%	1.0%	?	0%	-11%	-9%	14%	-13%
O=C(Nc1cc2ccc(O)cc2oc1=O)c1ccccc1
→ 1%	-1.5%	·	·	-22%	·	-23%[46.1 µM]	·
CCOc1ccc(-c2cc(CCCC(=O)NCCc3ccc(SC)cc3)no2)cc1
→ -9%	-1.1%	·	-23%[46.1 µM]	-13%	·	?	·
CN(C(=O)c1ccc(Cl)c(S(=O)(=O)N2CCOCC2)c1)c1ccccc1C(=O)O
→ ·	4.1%	-9%	17%	1%	2%	18%	6%
CCN(CC)S(=O)(=O)c1cc(C(=O)Nc2cc(C)on2)c(Cl)cc1Cl
→ ?	·	0%	-21%	·	1%	?	9%
COC(=O)c1cc(NC(=O)Nc2cc(OC)ccc2OC)cc(C(=O)OC)c1
→ 1%	-6.4%	24%[3.69 µM]	8%	?	2%	1%	3%
O=C(CSc1nc(-c2ccccc2)[nH]c1-c1ccccc1)Nc1ccc2c(c1)OCO2
→ ?	-4.8%	·	?	10%	·	?	·
COCCNC(=O)CSc1nc2cc3c(cc2c(=O)n1CCCC(=O)NCc1ccc2c(c1)OCO2)OCO3
→ 6%	1.8%	·	·	8%	·	-1%[46.1 µM]	·
CSCC[C@H](NC(=O)C(C)Oc1ccc(Cl)cc1)c1nc2ccccc2[nH]1 (stereo not given in full)
→ 25%	-4.8%	-5%	?	-5%	-22%	-12%	-1%
CCOC(=O)Nc1cc(C(=O)OC)ccc1C
→ 33%[activator]	7.9%	6%	-12%	-7%	7%	-24%	3%
O=C(NNC(=S)Nc1cccc(C(F)(F)F)c1)c1cccc(Cl)c1
→ -27%	-2.9%	10%	1%	2%	-4%	?	-38%
O=C(O)c1ccccc1NC(=O)c1cc2ccccc2oc1=O
→ 14%	·	3%	·	·	-2%	·	0%
COc1ccc(OC)c(S(=O)(=O)Nc2ccccc2O)c1
→ 79%[activator]	·	-7%	1%	·	·	-27%	·
O[C@@H]1CN(C2CCN(Cc3ccccc3)CC2)CC[C@H]1N1CCCCCC1
→ -1%	·	-18%	?	·	·	-2%[46.1 µM]	·
CCOc1ccc(CNS(=O)(=O)c2ccc(-c3coc(C)n3)cc2)cc1
→ -22%	-7.7%	·	·	?	-1%	0%[46.1 µM]	·
CC(=O)N1CCN(c2ccc(NCc3ccccc3)cc2)CC1
→ 0%	4.9%	-7%	0%	-2%	-3%	9%	5%
COc1ccc(NC(=O)NC2COc3ccccc3C2)cc1Cl (stereo not given)
→ 16%	-0.2%	·	·	-7%	·	-4%[46.1 µM]	·
COc1ccc(NC(=O)CSc2nccn2C)c([N+](=O)[O-])c1
→ 35%[activator]	·	3%	24%[46.1 µM]	·	-8%	0%	·
CN(C)NC1CC(=O)N(c2ccccc2)C1=O (stereo not given)
→ -13%	·	13%	2%[46.1 µM]	·	1%	2%	3%
CCOc1ccc(NC(=O)c2ccc(F)c(S(=O)(=O)NCc3ccc4c(c3)OCO4)c2)cc1
→ ?	0.0%	·	·	7%	·	-21%[46.1 µM]	·
COc1ccccc1OCC(=O)Nc1ccccc1C(=O)Nc1cccc(C(=O)O)c1
→ -5%	·	15%	1%[46.1 µM]	·	0%	-24%	12%
Cc1ccc(C(=O)NCCc2ccc(Cl)cc2)cc1-n1c(C)nc2cccnc21
→ -18%	-3.2%	·	·	5%	·	4%[46.1 µM]	·
Cc1ccccc1CS(=O)(=O)c1cn(CC(=O)N2CCOCC2)c2ccccc12
→ -6%	·	2%	7%	·	-5%	9%	-3%
CC(C)NC(=O)C1CCN(C(=O)c2cnn(-c3ccccc3)c2-n2cccc2)CC1
→ 7%	0.0%	·	-3%[46.1 µM]	-4%	·	-6%[46.1 µM]	·
Cc1ccc(NCc2nc3ccccc3n2C)cc1C
→ 31%[activator]	·	-14%	-20%	·	-5%	-2%	-10%
CCOC(=O)N1CCN(C(=O)CSCC(=O)Nc2nc(-c3ccc4c(c3)OCO4)cs2)CC1
→ ?	-2.3%	-11%	?	18%	0%	7%	6%
CC(=O)c1cccc(N(CC(=O)Nc2cc(C)cc(C)c2)S(C)(=O)=O)c1
→ -8%	·	-4%	5%[46.1 µM]	·	0%	-21%	-10%
CCOc1ccc(S(=O)(=O)NCCc2cn3ccccc3n2)cc1
→ -3%	·	-8%	5%	·	?	-2%	6%
CSc1ncccc1C(=O)OCC(=O)Nc1ccc(S(=O)(=O)N2CCCC2)cc1
→ ?	-5.8%	9%	6%	12%	1%	-1%	-3%
CCN(CC)C(=O)c1ccc(NC(=O)c2c(C)noc2C)cc1
→ -18%	·	24%	?	·	2%	?	·
N=c1sccn1CC(=O)Nc1ccc(Cl)cc1[N+](=O)[O-]
→ -9%	·	-25%	15%[46.1 µM]	·	0%	19%	2%
COc1ccc(CNC(=O)CS(=O)(=O)c2cccc3nsnc23)cc1
→ -3%	-1.2%	·	·	0%	·	5%[46.1 µM]	·
COc1ccc(NC(=O)COn2nnc3ccc(Cl)cc32)cc1OC
→ ·	-8.6%	11%	0%	-3%	-8%	2%	-87%
CCC(C)C(=O)Nc1cc(C(=O)OC)cc(C(=O)OC)c1 (stereo not given)
→ ·	-0.8%	5%	3%	0%	4%	14%	8%
CCn1c(-c2csc3c2CCC(C)C3)n[nH]c1=S (stereo not given)
→ -27%	-0.4%	18%	?	4%	-9%	-8%	-4%
CCn1c(=O)n(-c2ccc(F)c(Cl)c2)c(=O)c2sc3ccccc3c21
→ -2%	0.0%	·	3%[46.1 µM]	-7%	·	-3%[46.1 µM]	·
CC(C)CNC(=O)COC(=O)c1ccc2c(c1)C(=O)N(Cc1ccco1)C2=O
→ -23%	·	21%	2%[46.1 µM]	·	7%	·	4%
CCc1ccc(NC(=O)CN2C(=O)CC(C)S(=O)(=O)c3ccccc32)cc1 (stereo not given)
→ -14%	·	-7%	20%[46.1 µM]	·	-6%	-18%[46.1 µM]	6%
O=C(NC1CCCCCCC1)c1cc(F)c(F)cc1Cl
→ 43%[activator]	·	36%	·	·	0%	·	4%
COc1ccc2c(c1)c(C(=O)N/N=C/c1cccc(Br)c1)c(C)n2C
→ -21%	·	-12%	-10%	·	-3%	-21%	-4%
CCOc1ccc(N(CC(=O)Nc2c(C)n(C)n(-c3ccccc3)c2=O)S(=O)(=O)c2ccccc2)cc1
→ -6%	·	1%	?	·	-2%	-9%	2%
CC(O)CNc1nc2c(c(=O)n(C)c(=O)n2C)n1Cc1cccc(C(F)(F)F)c1 (stereo not given)
→ ?	-6.2%	12%	?	4%	0%	-16%	5%
COc1cccc(CNCC2CCCO2)c1 (stereo not given)
→ -11%	·	4%	·	·	5%	·	8%
Cc1ccc(C(=O)CSc2nnc(-c3cccs3)n2C)o1
→ -1%	3.7%	16%	·	-9%	8%	·	-4%
O=C(COc1ccc([N+](=O)[O-])cc1)Nc1ccc2[nH]c(=O)[nH]c2c1
→ -13%	·	-17%	21%	·	·	-4%	·
CCOC(=O)N/N=C1\CC(C)CC(C)(C)C1 (stereo not given)
→ -1%	1.4%	-21%	8%	11%	-8%	1%	6%
CCOC(=O)N1CCN(C(=O)C2CCN(S(=O)(=O)c3ccccc3)CC2)CC1
→ 4%	6.2%	10%[3.69 µM]	6%	12%	4%	-9%	-1%
COC(=O)[C@@H]1C[C@@]2(O)[C@@H](O)[C@@H](O)[C@@H](O)C[C@H]2N1Cc1ccc(C)s1
→ -9%	4.3%	-12%	·	-1%	1%	·	-6%
Cc1ccc(-n2c(SCC(=O)N(C)C3CCS(=O)(=O)C3)nc3ccccc3c2=O)cc1 (stereo not given)
→ -4%	·	-5%	-7%	·	-1%	4%	·

This is a random part of the collection. Share with any hit: about 4.7%.
